Screening data as filed in PubChem.
UUG fidelity: alters start codon recognition fidelity in yeast; AID 602363; activity score, % at 18.7 µM; 350,000 tested, 0.13% active; S. cerevisiae UUG-firefly luciferase reporter, luminescence/redox ratio;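 active = replicate mean at a twofold rise or more, about +100% in these data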;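 also: firefly luciferase made from a UUG start codon reports start codon fidelity; reporter light over untreated wells divided by growth signal over untreated wells; some hits fall short of that in this replicate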
Rce1 inhib: yeast Ras-converting enzyme inhibition; 290,000 tested, 0.27% active; calls only; AID 2563; yeast membranes, quenched prenylated peptide cleavage fluorescence; Q03530;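 active = fall in fluorescence gain of 50% or more versus controls, with final raw signal at or below 3038400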;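 also: plate controls were neutral control wells for no effect and wells lacking membranes for full effect; tested at 10 µM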
CSC inhib: blocks cancer stem cells. AID 2717. cancer stem cell-like cells viability, luminescence. 300,000 tested, 1.1% active. inhibition, % at 7.5 µM;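 active = mean at 75% or more and at least half the replicates too; tested in HMLE shEcad cells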;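 also: 0% = median of negative and 100% = median of positive control wells; the first replicate is given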
HIV Env fusion: HIV envelope-mediated fusion inhibition. HeLa-JRFL Env/CEM21 cell fusion, luciferase. inhibition, % at 12.3 µM. 360,000 tested, 1.1% active. AID 651610;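 active = mean replicate inhibition score of at least 50 and every replicate individually at or above 50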;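 also: 0% = plate neutral controls and 100% = maraviroc near 300 nM; one replicate is shown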
MT1-MMP act inh: blocks activation of human MT1-MMP. P50281. HT1080 RFP-PRO-GFP cells, GFP/RFP ratio fluorescence, overnight; percent of plate control window, DMSO zero. 360,000 tested, 0.061% active. AID 651647. GFP/RFP ratio change, % at 20 µM;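 active = GFP/RFP ratio change of at least 30% with cell ATP level not reduced by more than half and red fluorescence within 50% of control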; also: strong numbers were not always called active
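Assay system: HT1080 RFP-PRO-GFP cells. Benchmarks: DMSO vehicle wells and RFP-L50D-GFP reporter cell wells. Times: overnight cell settling, then overnight compound exposure, 37 °C, 5% CO2. Compound: 20 µM single dose, 1% DMSO. Read-out basis: GFP/RFP fluorescence ratio.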
PABP FP inh: PABP-poly(A) binding inhibition; PABP-poly(A) RNA binding, fluorescence polarization; inhibition, % at 35 µM; 290,000 tested, 1% active;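 active = 50% or more with normal probe brightness, or confirmed in later tests; about a fifth of its hits are not listed in these tables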;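 also: calls also rest on retests at 20 µM and on dose response follow-up; controls were probe without protein and protein plus probe with vehicle; some compounds called inactive have numbers as strong as hits; many hits fall short of the cut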
Target sequence (P11940 whole entry, looked up): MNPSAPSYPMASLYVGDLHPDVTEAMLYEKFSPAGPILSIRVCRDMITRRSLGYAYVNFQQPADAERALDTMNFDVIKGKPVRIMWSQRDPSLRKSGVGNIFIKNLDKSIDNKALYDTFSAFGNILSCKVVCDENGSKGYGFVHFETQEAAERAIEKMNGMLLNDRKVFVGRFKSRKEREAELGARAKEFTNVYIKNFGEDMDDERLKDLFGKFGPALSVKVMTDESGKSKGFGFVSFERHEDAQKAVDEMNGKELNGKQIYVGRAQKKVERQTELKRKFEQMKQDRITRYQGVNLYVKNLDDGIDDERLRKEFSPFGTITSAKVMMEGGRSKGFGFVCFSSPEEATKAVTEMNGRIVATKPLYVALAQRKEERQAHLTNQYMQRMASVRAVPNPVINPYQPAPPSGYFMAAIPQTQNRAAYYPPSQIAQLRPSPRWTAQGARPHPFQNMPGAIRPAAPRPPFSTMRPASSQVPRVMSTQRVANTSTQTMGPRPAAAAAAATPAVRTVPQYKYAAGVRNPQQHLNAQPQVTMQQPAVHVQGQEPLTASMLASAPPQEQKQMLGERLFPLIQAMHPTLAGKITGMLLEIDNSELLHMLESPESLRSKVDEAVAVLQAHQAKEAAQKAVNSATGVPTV
eIF4H FP inh: inhibitors of RNA binding by human eIF4H; eIF4H fluorescence polarization binding assay; Q15056; 290,000 tested, 0.94% active; inhibition, % at 35 µM;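 active = 50% or more with normal probe brightness, or confirmed in later tests; about a fifth of its hits are not listed in these tables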;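 also: calls also rest on retests at 20 µM and on dose response follow-up; 0% = protein and probe with vehicle and 100% = probe without protein; strong numbers were not always called active; many hits fall short of the cut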
eIF4H FP inh retest: further read-out of eIF4H FP inh, marked with its call; inhibition, %; compound at 20 µM; confirmation average;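 mean of two retest wells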
PABP FP inh retest: recorded beside PABP FP inh, whose call it bears; inhibition, %; compound at 20 µM; confirmation repeats;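 mean of two retest wells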
MT1-MMP act inh RFP: recorded beside MT1-MMP act inh, whose call it bears; RFP signal change, %; measured here: RFP expression control read;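 0 = vehicle wells; hits needed this value within 50% of zero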
Active calls of the source: *; i = inactive; nt = not tested or not shown; & = joins results of further samples.

SMILES	UUG fidelity	Rce1 inhib	CSC inhib	HIV Env fusion	MT1-MMP act inh	MT1-MMP act inh RFP	PABP FP inh	eIF4H FP inh	others
CC(=O)Cc1nsc(NC(=O)c2c(-c3ccccc3Cl)noc2C)n1	-8	i	-11	-7	3	4	-11	0
CC(C)Cn1cc(-c2cccc3nccn23)cn1	-7	nt	nt	1	-4	2	nt	nt
COc1cccc(C(=O)Nc2ccc(NC(C)=O)cc2)c1	-16	i	-17	-34	3	1	0	2
CS(=O)(=O)ON=C1CCN(S(=O)(=O)c2ccccc2)CC1	nt	i	-3	1	2	8	3	6
Cc1cc(S(=O)(=O)NC2CC(C)(C)NC(C)(C)C2)c(Cl)cc1Cl	3	i	35	-30	0	2	-1	-3
CCOc1cc(CNn2cnnc2)cc(Cl)c1OCC(=O)NC(C)(C)C	-4	nt	-1	-57	1	1	2	-6
Cc1ccccc1C(=O)c1ccc2c(c1)n(C)c(=O)n2C	2	i	-8	14	3	-1	-1	-7
O=C(NCC(=O)N1CC=C(c2ccccc2)CC1)c1ccc(OC(F)F)cc1	-21	nt	26	3	-2	-13	nt	nt
Cc1ccc(NC(=O)COc2cccnc2[N+](=O)[O-])cc1S(=O)(=O)N1CCCCC1	nt	i	0	24	1	-9	7	-8
O=C(CN1C(=O)S/C(=C\c2ccc(F)cc2)C1=O)NC1C=CS(=O)(=O)C1 (stereo unspecified)	-20	i	2	-12	-3	-5	nt	nt
Cc1ccc(NC(=O)C2CCCN(S(=O)(=O)c3cccc4cccnc34)C2)cc1 (stereo unspecified)	14	i	-1	-56	1	-4	-1	-2
CC(C)c1ccc(NC2CCCN(C(=O)CCn3cnnn3)C2)cc1 (stereo unspecified)	-11	nt	13	18	-2	1	-2	5
Cc1nn(-c2ccc(F)cc2)c(Cl)c1/C=C/C(=O)OCC(=O)Nc1ccc(F)cc1F	-19	i	-16	38	1	3	2	-4
C[C@H]1CN([C@@H](C)CO)S(=O)(=O)c2ccc(Br)cc2O[C@@H]1CN(C)C(=O)c1cccnc1	5&-13	nt	nt	7	1	5	nt	nt
Cc1cc(C(=O)N2CCCC(CNS(=O)(=O)c3cccs3)C2)nn1C (stereo unspecified)	nt	i	-10	1	0	0	10	-6

Among those listed so far, these contain a Cl atom.
SMILES	UUG fidelity	Rce1 inhib	CSC inhib	HIV Env fusion	MT1-MMP act inh	MT1-MMP act inh RFP	PABP FP inh	eIF4H FP inh	others
CC(=O)Cc1nsc(NC(=O)c2c(-c3ccccc3Cl)noc2C)n1	-8	i	-11	-7	3	4	-11	0
Cc1cc(S(=O)(=O)NC2CC(C)(C)NC(C)(C)C2)c(Cl)cc1Cl	3	i	35	-30	0	2	-1	-3
CCOc1cc(CNn2cnnc2)cc(Cl)c1OCC(=O)NC(C)(C)C	-4	nt	-1	-57	1	1	2	-6
Cc1nn(-c2ccc(F)cc2)c(Cl)c1/C=C/C(=O)OCC(=O)Nc1ccc(F)cc1F	-19	i	-16	38	1	3	2	-4

Going on with the list.
SMILES	UUG fidelity	Rce1 inhib	CSC inhib	HIV Env fusion	MT1-MMP act inh	MT1-MMP act inh RFP	PABP FP inh	eIF4H FP inh	others
COc1ccccc1OCC(=O)N1CCC2(CC1)CC(=O)c1ccccc1O2	5	i	-11	7	-1	0	nt	nt
COc1ccc(OC)c2c1cc(C(=O)N[C@H](C(=O)N1CCC[C@H]1C(=O)O)C(C)C)n2C	-3	i	-14	nt	13	7	10	-2
COc1ccc(CCC(C)NCc2ccccc2OC)cc1 (stereo unspecified)	-16	i	3	-7	2	0	-8	3
O=C(NNC(=O)C1CC=CCC1)c1ccccc1O (stereo unspecified)	-16	i	6	6	6	6	2	-13
Oc1c(Br)cc(Br)cc1CNc1nccs1	3	i	4	5	-1	3	13	-3
CCSC(=Nc1ccccc1)Nc1ccccc1	nt	i	5	4	-2	-1	7	-6
O=C(COC(=O)c1ccc(Br)o1)NC1CCCCC1	nt	i	0	7	-1	0	16	-3
CCOC(=O)N1CCC(NC(=O)c2ccc(CO)c(C(=O)NC3CCN(C(=O)OCC)CC3)c2)CC1	nt	i	-7	0	0	1	-14	-12
COc1cccc(OCc2nc3ccccc3c(=O)n2N)c1	-7	i	-3	nt	4	2	-10	1
CCn1ncc(/C=N/NS(=O)(=O)c2ccc(Cl)cc2)c1C	-9	nt	-13	nt	0	0	0	6
CCCCn1nnnc1NCc1cc(OC)c(OC)cc1OC	-15	i	-19	5	0	0	-5	7
NC(=O)CC(NC(=O)Cc1ccc(Cl)cc1)c1ccc(NCCCN2CCCC2=O)c([N+](=O)[O-])c1 (stereo unspecified)	-15	i	6	17	5	3	28	69*	eIF4H FP inh retest=92*;PABP FP inh retest=49
O=C(COC(=O)c1cc(S(=O)(=O)N2CCOCC2)ccc1Cl)NCCc1ccccc1	-1	nt	nt	-4	3	4	nt	nt
C=C1CCN([C@@H](CC(C)C)C(=O)NCCCc2ccccc2)S(=O)(=O)c2ccccc21	-12	i	nt	26	-10	-11	nt	nt
Cc1nn(-c2ccccc2)c2nc(-c3cccs3)cc(C(=O)NN)c12	nt	i	24	-25	0	-3	17	18
O=S(=O)(NCCc1ccccc1)c1ccc(-n2cnnn2)cc1	-10	i	-5	-5	1	0	-5	-8
Cn1c(=O)c2c([nH]c(=S)n2CCCc2ccccc2)n(C)c1=O	-37	i	-8	5	1	-5	-4	2
O=C(NCCC(=O)N1CCNC1=O)OCc1ccccc1	-15	i	nt	nt	8	5	3	-5
CCc1cc(C(=O)N2CCCC(C(=O)c3ccc(Oc4ccccc4)cc3)C2)n(C)n1 (stereo unspecified)	9	i	-8	7	3	-9	4	4
O=C(NCCC1=CCCCC1)C1CCC(CNc2nc(=S)[nH]c3ccccc23)CC1 (stereo unspecified)	-7	i	4	-26	4	-2	0	-12
Cc1cc(NC(=O)CSc2ncnc3sc(C)c(C)c23)no1	15	i	-14	8	1	1	54	-2	eIF4H FP inh retest=-10;PABP FP inh retest=8
CCCCCn1c(=S)[nH]c2cc(C(=O)N3CCN(C(=O)OCC)CC3)ccc2c1=O	-14	nt	11	-2	4	3	-6	-6
CCOC(=O)C1=C(C)NC(=O)NC1c1ccc(Br)o1 (stereo unspecified)	nt	i	-5	-10	4	1	-3	-1
COc1ccc(-c2cnn(-c3ccccc3)c2N)cc1OC	-17	i	-15	-71	-2	3	0	-17
Cc1cc(OCC(=O)NCC(c2ccc(F)cc2)N2CCOCC2)ccc1Cl (stereo unspecified)	-4	nt	-1	nt	-3	-4	nt	nt
Cc1ccnc(NC(=O)CN(C)S(=O)(=O)c2cccc3nsnc23)c1	-13	i	-21	-7	-1	5	8	-1
O=C(NCC(c1cccs1)N1CCOCC1)c1cc(-c2ccccn2)nc2ccccc12 (stereo unspecified)	-38	i	-4	4	6	4	0	-3
COc1ccc(O)c(C(=O)CC(=O)c2cccnc2)c1	1	nt	nt	-71	1	-2	nt	nt
C=CCn1c2ccccc2c2nnc(SCCN3CCCCC3)nc21	-11	i	26	-4	1	0	7	-1
Cc1nc(CCN2C(=O)c3ccccc3C2=O)n[nH]1	-12	i	-8	6	-3	2	-3	5
COc1cc(/C=N/NC(=O)c2cc3c(ccc4ccccc43)o2)cc(OC)c1O	-5	i	0	-1	-3	2	9	-4
COc1ccc(NC(=O)C2C(c3ccccc3)C2(Cl)Cl)cc1 (stereo unspecified)	nt	i	23	-3	-2	-9	0	-3
Cc1ccc(/C=N/n2c(-c3cccnc3)n[nH]c2=S)o1	-16	i	-10	1	-2	1	1	6
COc1ccc([N+](=O)[O-])cc1NC(=S)NC(C)=O	nt	i	-6	-14	0	8	3	-12
COc1cccc(C(c2nnnn2Cc2ccccc2)N2CCN(C(=O)c3ccco3)CC2)c1OC (stereo unspecified)	10	i	7	nt	-5	-1	20	-9
COc1ccc(CCNC(=O)COc2ccc3c(C)cc(=O)oc3c2)cc1OC	-7	i	0	12	-5	0	-1	-3
Cc1c(Cl)cccc1NS(=O)(=O)c1cn(C)c(=O)n(C)c1=O	2	i	-10	nt	-1	3	-8	0
CN1CCN(c2ccc(CNS(=O)(=O)Cc3cccc(C(F)(F)F)c3)cc2)CC1	-2	i	44	-4	-8	-26	8	20
COc1ccc(C(C)=O)c(OC(=O)c2ccco2)c1	-5	i	-13	-89	0	13	14	-7
CN1C(CC(=O)c2ccccc2)CCCC1CC(O)c1ccccc1 (stereo unspecified)	-16	i	-9	nt	4	7	-4	-2
CC1CCCCN1C(=S)Nc1ccc2nc3n(c(=O)c2c1)CCCCC3 (stereo unspecified)	-25	i	4	36	2	3	12	4
CNC(=O)CN1C(=O)COc2ccc(S(=O)(=O)N3CCCCCC3)cc21	-9	i	11	3	2	2	7	4
C/C(=N\NC(=O)CNc1cccc(Cl)c1C)c1cccs1	-4	i	-4	-9	4	2	-6	1
COc1ccc(/C=C/C(=O)NCCCc2ccccc2)cc1OC	6	i	-1	-9	0	1	1	-7
CCc1[nH]nc(C(=O)N2CCCC(CO)(Cc3ccc(F)cc3F)C2)c1C (stereo unspecified)	-8	i	-9	-3	-3	-7	nt	nt
O=C(O)c1cc(N=Cc2c(O)c3ccccc3oc2=O)ccc1O	-10	i	5	22	-11	0	24	-7
Cc1ccccc1-c1ccc(C(=O)NCc2ccccc2)o1	-6	i	15	-21	2	-3	0	-6
COc1ccccc1N(C)S(=O)(=O)c1ccc(C(=O)Nc2ccc(C)cc2C)cc1	15	nt	nt	-19	0	-4	nt	nt
Cc1cccc(NS(=O)(=O)c2ccc3c(c2)OCCO3)c1	-13	i	-8	7	4	-4	-6	-3
Cc1cccc(-c2nc(CS(=O)CC(=O)NCC3CCCO3)c(C)o2)c1 (stereo unspecified)	-12	i	-9	14	2	4	-10	0
C=CCn1c2ccccc2c2nnc(SCC(N)=O)nc21	3	i	-8	-3	-2	2	0	4
C(=N\n1cnnc1)/c1ccc2c(c1)OCCO2	-23	i	-1	-110	0	2	10	-2
Cc1ccc(-c2nc3ccc(Cl)cc3c(=O)n2O)cc1	3	i	3	-16	3	8	13	2
Cc1ccc(C(=O)c2c3ccccc3[n+]([O-])n2[C@@H](C)C(N)=O)cc1	-25	i	-12	nt	-2	2	nt	nt
C[C@H](CO)N1C[C@H](C)[C@@H](CN(C)C)Oc2c(NC(=O)CCCCCC(=O)Nc3ccccc3N)cccc2C1=O	-12	nt	-4	13	0	6	nt	nt
COC(=O)c1cc(S(=O)(=O)NC2CCCCC2)cn1C	7	i	-8	-1	5	5	nt	nt
O=C(O)c1cc(Sc2ccc(Br)cc2)nc2ccccc12	nt	i	nt	-1	5	1	4	-5
Cc1ccc(C(=O)NNC(=O)c2ccccc2)cc1S(=O)(=O)N1CCCCC1	-15	nt	-8	-6	-2	-2	nt	nt
COc1ccc(/C=C2\CCCCC2=O)cc1	-9	i	-9	12	-3	2	nt	nt
OCCOCCNc1ncnc2nc[nH]c12	-10	i	5	5	0	5	-9	8
Carrying on.
SMILES	UUG fidelity	Rce1 inhib	CSC inhib	HIV Env fusion	MT1-MMP act inh	MT1-MMP act inh RFP	PABP FP inh	eIF4H FP inh	others
CS(=O)(=O)c1ccc(Cl)c(NC(=O)c2cccc(N3C(=O)CCC3=O)c2)c1	nt	i	nt	-11	1	1	nt	nt
CC(=O)c1cccc(NC(=O)CCS(=O)(=O)c2cccc3nonc23)c1	-18	nt	-21	-114	-4	-1	1	4
CN(Cc1ccncc1)C1CC(=O)N(c2ccc(Cl)cc2)C1=O (stereo unspecified)	-16	i	-10	nt	3	2	-8	-1
COc1ccccc1-c1csc(Cc2nnc3n2CCCCC3)n1	-24	i	19	nt	1	-1	-8	-10
O=C(Cc1ccc(S(=O)(=O)N2CCCCC2)s1)Nc1cccc2ccccc12	nt	i	nt	14	-1	-2	2	-13
C/C(=N\NC(=O)Cc1ccccc1)c1cccnc1	-6	i	-3	25	nt	nt	26	-8

Rows are unselected (roughly 2.9% active in at least one column).
